GLA inh pH 4.5: qHTS Assay for Inhibitors of Human alpha-Galactosidase at pH 4.5; Alpha-galactosidase A (Homo sapiens), P06280; purified enzyme, 4-MU-alpha-Gal fluorescence, pH 4.5; activity change, negative = inhibition, % at 105 µM; 230,000 tested, under 10 active; inconclusive = small, poorly fitted or top-dose-only inhibition, or a rising curve; inactive = flat fitted curve, though single readings scatter; no compound was filed as active;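 note: 0% = full activity with enzyme and -100% = basal without enzyme; dose as in the result columns while the protocol names 77 µM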
Target sequence (P06280 whole entry, looked up): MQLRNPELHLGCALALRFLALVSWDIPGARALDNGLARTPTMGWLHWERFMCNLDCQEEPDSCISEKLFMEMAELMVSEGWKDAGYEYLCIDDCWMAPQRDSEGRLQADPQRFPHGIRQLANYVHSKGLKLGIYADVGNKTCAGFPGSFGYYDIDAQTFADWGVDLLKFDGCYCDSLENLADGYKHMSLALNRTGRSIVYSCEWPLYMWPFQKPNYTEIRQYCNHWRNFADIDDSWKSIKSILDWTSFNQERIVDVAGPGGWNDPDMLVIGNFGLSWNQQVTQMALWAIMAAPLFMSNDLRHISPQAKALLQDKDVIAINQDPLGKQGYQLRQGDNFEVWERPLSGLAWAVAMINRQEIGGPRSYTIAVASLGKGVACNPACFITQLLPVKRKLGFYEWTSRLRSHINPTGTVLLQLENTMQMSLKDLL
Rango complex inh: qHTS Assay for Inhibitors of Rango (Ran-regulated importin-beta cargo) - Importin beta complex formation. Importin subunit beta-1 (Homo sapiens), Q14974. Rango CFP/YFP FRET sensor + importin beta, 45 min. 0.031% of 340,000 active. AID 540263, 2011. Potency, µM (highest dose often 92.2 µM), for the others: top-dose inhibition of complex formation; active = rising FRET ratio curve, often small or poorly fitted; inconclusive = mostly compound fluorescence or quenching in the first reads; inactive = flat curves in all reads;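 note: potency is the fitted concentration of half-maximal effect; 0% = DMSO wells and 100% = buffer wells lacking importin beta; nearly all actives have a fitted effect of over 15% in size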
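FRET biosensor (snurportin 1 IBB flanked by EYFP and cerulean), 50 nM, with compound 5 min, then 0.125 microM importin beta in PBS, 1 mM DTT, 0.02% Tween-20, 0.1% BSA. CFP/YFP ratio read after 45 min at room temperature; pre-read flags interference.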
Rango release inh: qHTS Assay for Inhibitors of RanGTP induced Rango (Ran-regulated importin-beta cargo) - Importin beta complex dissociation. AID 540253, 2011. Snurportin-1 (Homo sapiens) + GTP-binding nuclear protein Ran (Homo sapiens) + Importin …. Biochemical FRET Rango-importin beta, RanGTP-induced dissociation. 0.071% of 340,000 active. Potency, µM (titrated, usually from 46.1 µM), for inactives: top-dose activity change, negative = inhibition; active means falling FRET ratio curve, often poorly fitted, with flat reads before Ran was added; inconclusive means other falling curves, or compound fluorescence or quenching; inactive means flat or rising ratio curve;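 note: potency is the fitted concentration of half-maximal effect; % of control where 0% means no effect; nearly all actives have a fitted effect of over 45% in size; -100% = wells without RanGTP and RCC1; the record marks most hits as doubtful in a second field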
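Quantitative HTS using a FRET biosensor: 0.1 uM Rango, 0.25 uM importin beta, 0.6 uM Ran, 2 mM GTP, 0.2 uM RCC1 final, PBS with DTT, Tween-20 and BSA. Post-read taken 45 min after Ran addition.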
miR-21 reporter: qHTS Assay for Modulators of miRNAs and/orActivators of miR-21; 340,000 tested, under 10 active; Potency, µM (doses to about 38.3 µM), without a hit: at the highest dose reporter change, positive = more light; HeLa miR-21 FLuc reporter, luciferase, 48 h; AID 2288, 2010; active = well fitted rising curve with a large enough effect; inconclusive = small, poorly fitted or top-dose-only effect; inactive = no such curve, though single readings can be large or run the other way;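 note: % of control where 0% means no effect; miR-21 action dims this reporter so a rising signal means less miR-21 action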
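Compounds were titrated across several concentrations (up to approximately 40 uM) and incubated 48 hours with HeLa miR-21-FLuc reporter cells (miR-21 target sequence downstream of FLuc, endogenous miR-21). Readout was firefly luciferase luminescence after lytic detection reagent.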
* marks the source's active call; other numbers are inactive results; & = joins results of further samples.

`CCC1CCCCN1CCCNC(=O)Cn1ncn2nc(-c3ccc(OC)cc3)cc2c1=O` (stereo not given) gave Rango complex inh -0.1%, Rango release inh -7% and miR-21 reporter -19%.
`CC(C)CCN1CC(O)=C(c2nc3ccccc3[nH]2)C1=N` gave GLA inh pH 4.5 -4, Rango complex inh 0.3%, Rango release inh -3% and miR-21 reporter -35%.
For O=C1CC(=O)C(n2cncn2)C(c2ccc(Cl)cc2)C1 (stereo not given) the results were GLA inh pH 4.5 6, Rango complex inh -4.4%, Rango release inh 10% and miR-21 reporter -6%.
For CC1CCN(C(=O)Cn2nnc(-c3ccc([N+](=O)[O-])cc3)n2)CC1 the results were Rango complex inh 0.0%, Rango release inh 19% and miR-21 reporter 3%.
`CS(=O)(=O)Nc1ccc(C2=NN(C(=O)c3ccco3)C(c3cccc(F)c3)C2)cc1` (stereo not given) gave GLA inh pH 4.5 -5, Rango complex inh -1.0%, Rango release inh 9% and miR-21 reporter 9%.
`O=C(CCC(=O)N1CCN(S(=O)(=O)c2ccc(Cl)cc2)CC1)NCc1cccc(C(F)(F)F)c1` gave Rango complex inh -4.7% and Rango release inh -1%.
COc1cc(CNCCO)cc(Br)c1OCc1ccccc1Cl was read as GLA inh pH 4.5 0, Rango complex inh -1.3%, Rango release inh 12% and miR-21 reporter 0%.
Screening O=c1c(Cc2c(F)cccc2Cl)c(O)ccn1Cc1ccc(F)cc1 returned GLA inh pH 4.5 -2, Rango complex inh 0.4%, Rango release inh -11% and miR-21 reporter -4%.
For CC(O)Cc1nsc(NC(=O)c2cccs2)n1 (stereo not given) the results were GLA inh pH 4.5 -2, Rango complex inh 1.5%, Rango release inh 31% and miR-21 reporter -34%.
`O=C(NC1CC1)c1cc2ccccc2o1` gave Rango complex inh -1.5%, Rango release inh 1% and miR-21 reporter -17%.
`Nc1ccc(NC(=O)c2ccc(C(=O)Nc3ccc(N)cc3)cc2)cc1` gave GLA inh pH 4.5 3, Rango complex inh -0.5%, Rango release inh -2% and miR-21 reporter -2%.
For Cc1cccc(CC(=O)NCCS(=O)(=O)N2CCN(c3cccc(Cl)c3)CC2)c1 the results were Rango complex inh 0.0% and Rango release inh 14%.
CCOc1ccc(C(=O)NCC(=O)NNC(=O)c2cc(C)oc2C)cc1OCC was read as Rango complex inh -4.8% and Rango release inh -6%.
`O=C(Nc1cnn(Cc2c(Cl)cccc2Cl)c1)c1ccc([N+](=O)[O-])cc1` gave GLA inh pH 4.5 4, Rango complex inh -0.4%, Rango release inh 10% and miR-21 reporter -30%.
CCc1cc(C(=O)N2CCN(C(=O)c3ccco3)CC2)sc1C was read as Rango complex inh -0.3% and Rango release inh 12%.
For COc1cc2c(cc1NC(=O)CN1CCN(S(=O)(=O)c3ccc(C)cc3)CC1)oc1ccccc12 the results were GLA inh pH 4.5 4, Rango complex inh -3.8%, Rango release inh 8% and miR-21 reporter -3%.
Nc1ncnc2c1ncn2[C@@H]1O[C@H](CO)C[C@@H]1O was read as GLA inh pH 4.5 -4&-4 and miR-21 reporter 0%.
Screening CN1CCN(C(=S)NC(=O)c2cccc(S(=O)(=O)N(C)C)c2)CC1 returned GLA inh pH 4.5 8, Rango complex inh 1.4%, Rango release inh -5% and miR-21 reporter -5%.
Screening Cc1ccc(NC(=S)NCc2ccccc2)cc1[N+](=O)[O-] returned GLA inh pH 4.5 3, Rango complex inh -5.8%, Rango release inh 4% and miR-21 reporter -1%.
For CC(C)NS(=O)(=O)c1ccc(OCC(=O)N2CCc3ccccc3C2)cc1 the results were GLA inh pH 4.5 6, Rango complex inh -4.4%, Rango release inh -14% and miR-21 reporter 6%.
Screening Cc1ccc(Cn2cc(/C=C/C(=O)O)c(-c3ccccc3)n2)cc1 returned GLA inh pH 4.5 -9, Rango complex inh 0.2%, Rango release inh -10% and miR-21 reporter -9%.
`Cc1ccc(NC(=S)N2CCCCC2CO)cc1C` (stereo not given) gave GLA inh pH 4.5 5, Rango complex inh -1.5%, Rango release inh 3% and miR-21 reporter -38%.
O=C(Nc1nc2ccc(SC(F)F)cc2s1)c1ccc(NS(=O)(=O)c2ccc(F)c(F)c2)cc1 was read as GLA inh pH 4.5 -5, Rango complex inh 4.7%, Rango release inh 1% and miR-21 reporter 0%.
Screening CCN(CC)S(=O)(=O)c1ccc(-c2csc(C)n2)cc1 returned GLA inh pH 4.5 7, Rango complex inh -3.7%, Rango release inh -13% and miR-21 reporter -17%.
For O=C1c2ccccc2C(=O)N1OCc1cccc(Cl)c1 the results were GLA inh pH 4.5 12, Rango complex inh 0.8%, Rango release inh 1% and miR-21 reporter -3%.
Cc1nc(C(C)NC(=O)c2ccc(OC3CCN(Cc4ccccn4)CC3)cc2)c(C)s1 (stereo not given) was read as Rango complex inh -0.7%, Rango release inh inconclusive and miR-21 reporter 0%.
`COc1ccc2nc(SCc3cnc(C)nc3N)[nH]c2c1` gave GLA inh pH 4.5 -4, Rango complex inh 0.9%, Rango release inh -5% and miR-21 reporter -4%.
O=C(CN1C(=O)C2C3C=CC(C3)C2C1=O)Nc1nc(-c2ccccn2)cs1 (stereo not given) was read as GLA inh pH 4.5 -2, Rango complex inh -3.9%, Rango release inh -1% and miR-21 reporter 15%.
CCC(C)NC(=O)C1c2ccccc2C(=O)N1Cc1ccc(F)cc1 (stereo not given) was read as Rango complex inh -4.7%, Rango release inh -1% and miR-21 reporter -3%.
For CCc1nnc(NC(=O)C2=CCN(S(=O)(=O)c3ccc(F)cc3)CC2)s1 the results were GLA inh pH 4.5 -2, Rango complex inh 0.8%, Rango release inh 2% and miR-21 reporter 9%.
`COc1cc(C(CC(=O)Nc2ccccn2)N2Cc3ccccc3C2=O)cc(OC)c1OC` (stereo not given) gave Rango complex inh -0.3%, Rango release inh -13% and miR-21 reporter -1%.
CCOC(=O)CN1CC23C=CC(O2)C(C(=O)NCc2ccccc2OC)C3C1=O (stereo not given) was read as GLA inh pH 4.5 -16, Rango complex inh 3.8%, Rango release inh 13% and miR-21 reporter -5%.
CCN(CC(=O)Nc1c(F)cccc1F)C(=O)c1cc([N+](=O)[O-])ccc1N1CCCCC1 was read as Rango complex inh 0.6% and Rango release inh -4%.
O=C(CN1C(=O)S/C(=C\c2cccs2)C1=O)Nc1ccc(O)cc1C(=O)O was read as Rango complex inh -3.1%, Rango release inh -6% and miR-21 reporter 2%.
COc1ccccc1N1CCN(C(=O)C(=O)c2cn(CC(=O)N3CCCC3)c3ccccc23)CC1 was read as Rango complex inh -0.2%, Rango release inh -26% and miR-21 reporter -4%.
CC1=C(C(=O)OC(C)C)C(c2ccc3c(c2)OCO3)NC(=O)N1 (stereo not given) was read as Rango complex inh 0.2%, Rango release inh -6% and miR-21 reporter -3%.
`CCOc1ccc(-c2cc(CCCC(=O)N3CCN(c4ccc(OC)cc4)CC3)no2)cc1` gave GLA inh pH 4.5 8, Rango complex inh inconclusive, Rango release inh -2% and miR-21 reporter 12%.
For C/C(=N\NC(=O)c1c(Cl)cnn1C)c1ccc(NC(=O)c2ccncc2)cc1 the results were GLA inh pH 4.5 -8, Rango complex inh -1.8%, Rango release inh 14% and miR-21 reporter -18%.
Nc1nc(SCc2c(Cl)cccc2Cl)n[nH]1 was read as GLA inh pH 4.5 -2, Rango complex inh 9.2%, Rango release inh -3% and miR-21 reporter -32%.
O=C(c1ccc(S(=O)(=O)N2CCC(c3nc4ccccc4[nH]3)CC2)cc1)N1CCOCC1 was read as GLA inh pH 4.5 -3, Rango complex inh -0.1%, Rango release inh 3% and miR-21 reporter -5%.

Brought forward from above: four entries; new compounds follow.
`CCOc1ccc(-c2cc(CCCC(=O)N3CCN(c4ccc(OC)cc4)CC3)no2)cc1` gave GLA inh pH 4.5 8, Rango complex inh inconclusive, Rango release inh -2% and miR-21 reporter 12%.
For C/C(=N\NC(=O)c1c(Cl)cnn1C)c1ccc(NC(=O)c2ccncc2)cc1 the results were GLA inh pH 4.5 -8, Rango complex inh -1.8%, Rango release inh 14% and miR-21 reporter -18%.
Nc1nc(SCc2c(Cl)cccc2Cl)n[nH]1 was read as GLA inh pH 4.5 -2, Rango complex inh 9.2%, Rango release inh -3% and miR-21 reporter -32%.
O=C(c1ccc(S(=O)(=O)N2CCC(c3nc4ccccc4[nH]3)CC2)cc1)N1CCOCC1 was read as GLA inh pH 4.5 -3, Rango complex inh -0.1%, Rango release inh 3% and miR-21 reporter -5%.
For COc1ccc(C(=O)N(Cc2nc(-c3ccc(C)cc3)no2)C2CCCCC2)cc1OC the results were GLA inh pH 4.5 -15, Rango complex inh -0.1%, Rango release inh -2% and miR-21 reporter 8%.
For Cc1ccc(-n2c(C)nc3c(cnn3-c3ccccc3Cl)c2=O)cc1C the results were GLA inh pH 4.5 1, Rango complex inh -3.7%, Rango release inh 0% and miR-21 reporter -5%.
`CCOC(=O)c1[nH]c(C)c(C(=O)OCC(=O)NC2CCS(=O)(=O)C2)c1C` (stereo not given) gave GLA inh pH 4.5 2, Rango complex inh 3.1%, Rango release inh 18% and miR-21 reporter -11%.
Cc1ccc(NC(=O)N2CCN(C(=O)C3CCCO3)CC2)cc1 (stereo not given) was read as Rango complex inh -4.6%, Rango release inh 23% and miR-21 reporter -3%.
For Cc1cc(C(F)(F)F)nn1CC(=O)Nc1ccc(Br)c2cccnc12 the results were GLA inh pH 4.5 -22, Rango complex inh -1.6%, Rango release inh 1% and miR-21 reporter -6%.
`CCC(=O)c1ccc(OCc2ccc(C#N)cc2)cc1` gave GLA inh pH 4.5 -2, Rango complex inh 0.6%, Rango release inh 6% and miR-21 reporter -67%.
`COc1ccc(-c2csc(NC(=O)CS(=O)(=O)c3ccccc3)n2)cc1` gave Rango complex inh 0.5% and Rango release inh 10%.
Screening CCCCNC(=O)CCNC(=O)c1ccc(C(C)(C)C)cc1 returned GLA inh pH 4.5 11, Rango complex inh -0.2%, Rango release inh -11% and miR-21 reporter -12%.
For COc1ccc(NC(=O)/C(=C\c2ccc(OC)c(OC)c2)NC(=O)c2ccco2)cc1 the results were Rango complex inh 3.4%, Rango release inh 5% and miR-21 reporter 2%.
S=C(Nc1cccc2ccccc12)N1CCN(c2ncccn2)CC1 was read as GLA inh pH 4.5 8, Rango complex inh -0.6%, Rango release inh -3% and miR-21 reporter -19%.
For CCCN1C(=O)C(O)(C2COC(C)(C)CC2=O)c2ccccc21 (stereo not given) the results were GLA inh pH 4.5 -3, Rango complex inh -2.2%, Rango release inh 3% and miR-21 reporter -1%.
Screening Cc1nc(=O)c(-c2ccccc2)c(C)n1-c1ccc(S(N)(=O)=O)cc1 returned GLA inh pH 4.5 -3, Rango complex inh 2.3%, Rango release inh -25% and miR-21 reporter -3%.
Screening Cc1ccc(C)n1-c1ccc(C(=O)O)cc1 returned GLA inh pH 4.5 -3 and miR-21 reporter -3%.
N#Cc1cc(Oc2cccc3cccnc23)c(-n2nnc3ccccc32)cc1C#N was read as GLA inh pH 4.5 0, Rango complex inh inconclusive, Rango release inh inconclusive and miR-21 reporter inconclusive.
CCN(c1cc(C)cc(C)c1)S(=O)(=O)c1nnc(NC(=O)C(C)C)s1 was read as Rango complex inh 0.2%, Rango release inh 1% and miR-21 reporter 0%.
Screening O=C(Nc1ccccc1)OC1CCS(=O)(=O)C1 (stereo not given) returned GLA inh pH 4.5 -9, Rango complex inh -1.0%, Rango release inh 3% and miR-21 reporter -3%.
Screening CCN(CC)CCCNC(=O)c1oc2ccc3c(c2c1C)C(O)CC(C)(C)O3 (stereo not given) returned Rango complex inh -4.5%, Rango release inh 4% and miR-21 reporter -6%.
CCCP(=O)(CCC)CCP(=O)(c1ccccc1)c1ccccc1 was read as GLA inh pH 4.5 1, Rango complex inh -0.2%, Rango release inh -15% and miR-21 reporter -1%.
`Cc1ccc(O)c(C(=O)c2cnc3c(c2)CN(C)C(=O)N3)c1` gave GLA inh pH 4.5 4, Rango complex inh -2.1%, Rango release inh -23% and miR-21 reporter 22%.

Only part of the results is shown. The share of hits here may be higher or lower than overall.
